Marburg entry inh: qHTS for inhibitors of binding or entry into cells for Marburg Virus; Marburg virus pseudotyped entry inhibition, cell reporter; control for the full effect not named in the record; about a third of the inactives were read at about 46 µM; 300,000 compounds, 1.8% hits; Potency, µM (highest dose often 37.8 µM), for inactives: top-dose activity change, negative = inhibition, actives largely listed as inhibitors; active = well fitted inhibition curve with a large enough effect; inconclusive = small, poorly fitted or top-dose-only effect, or effect the other way; inactive = flat fitted curve, though single readings scatter; tested in HEK293 cells; about a fifth of its hits are not listed in these tables; also: % is scaled to controls: 0 for no effect and ±100 for the full control effect; luciferase read-out
Cruzain Triton: qHTS Assay for Promiscuous and Specific Inhibitors of Cruzain (with detergent); Cruzipain (Trypanosoma cruzi), P25779; purified cruzain, Z-FR-AMC fluorescence, 0.01% Triton; Potency, µM, for the others: max response, negative = inhibition, hits mostly inhibitors; 200,000 compounds, 0.43% hits; active = well fitted curve in the direction sought with a large enough effect; inconclusive = small, poorly fitted or top-dose-only effect, or another doubt; inactive = no such curve, though single readings can be large; an effect the other way counts as inactive or inconclusive;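 also: plate controls were neutral wells for no effect and buffer without enzyme for full effect; nearly all actives have a fitted effect of over 40% in size; top concentration of the series not given in the record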
Target sequence (P25779 123-467 limits assumed): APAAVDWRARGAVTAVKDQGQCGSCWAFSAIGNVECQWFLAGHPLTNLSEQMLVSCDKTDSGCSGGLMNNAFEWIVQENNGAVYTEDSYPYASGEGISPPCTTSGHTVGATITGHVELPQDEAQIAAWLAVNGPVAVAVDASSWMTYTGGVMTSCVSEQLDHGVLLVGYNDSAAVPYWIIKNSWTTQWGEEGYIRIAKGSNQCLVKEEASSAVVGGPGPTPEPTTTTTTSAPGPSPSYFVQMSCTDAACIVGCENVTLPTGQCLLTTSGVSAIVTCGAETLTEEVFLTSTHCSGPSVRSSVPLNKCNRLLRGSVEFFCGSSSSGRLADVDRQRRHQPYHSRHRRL
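Enzyme 1.5 nM, Z-FR-AMC 2 uM, NaOAc 100 mM pH 5.5, DTT 5 mM, Triton X-100 0.01%; 15 min RT compound preincubation; kinetic ex360/em450, 60 s delta.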
SARS PLpro yeast: qHTS of Yeast-based Assay for SARS-CoV PLP. S. cerevisiae expressing SARS-CoV PLpro, growth rescue; control for the full effect not named in the record. 330,000 compounds, 0.19% hits. AID 485353, 2010. Potency, µM (titrated, usually from 32.9 µM), for the others: top-dose activity, positive = growth rescue; also: 0% is about no effect; nearly all actives have a fitted effect of over 55% in size; growth read by luminescence after 48 h
LASV entry inh: qHTS for Inhibitors of binding or entry into cells for Lassa Virus | Lassa virus pseudotype entry inhibition, cell reporter; control for the full effect not named in the record | 300,000 compounds, 1.2% hits | Potency, µM (top dose mostly 37.9 µM), for the others: at the highest dose activity change, negative = inhibition, hits mostly inhibitors; active means well fitted inhibition curve with a large enough effect; inconclusive means small, poorly fitted or top-dose-only effect, or effect the other way; inactive means flat fitted curve, though single readings scatter; tested in HEK293 cells; also: % is scaled to controls: 0 for no effect and ±100 for the full control effect; nearly all actives have a fitted effect of over 50% in size; luciferase read-out
Cruzain noTriton: qHTS Assay for Promiscuous and Specific Inhibitors of Cruzain (without detergent). Cruzipain (Trypanosoma cruzi), P25779. Potency, µM, inactives show max response, negative = inhibition, usual class: inhibitors. 200,000 compounds, 2.3% hits. purified cruzain, Z-FR-AMC fluorescence, no detergent; active = well fitted curve in the direction sought with a large enough effect; inconclusive = small, poorly fitted or top-dose-only effect, or another doubt; inactive = no such curve, though single readings can be large; an effect the other way counts as inactive or inconclusive;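 also: plate controls were enzyme without inhibitor for no effect and buffer without enzyme for full effect; nearly all actives have a fitted effect of over 40% in size; top concentration of the series not given in the record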
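Purified cruzain at 1.5 nM, pre-incubated 15 min with compound at room temperature in 100 mM sodium acetate pH 5.5, 5 mM DTT, 0.00005% Triton X-100. Reaction started with 2 uM Z-FR-AMC; AMC fluorescence increase over 60 s gives rate.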
NS1 function inh: qHTS Assay for Inhibitors of Influenza NS1 Protein Function; S. cerevisiae slowed by influenza A NS1, growth recovery by OD600; Potency, µM (doses to about 46.1 µM), without a hit: top-dose activity, positive = more growth; 270,000 compounds, 0.4% hits; AID 2326, 2010; also: actives are rising curves; nearly all actives have a fitted effect of over 50% in size
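Compounds were scored for reversing the slow growth caused by influenza A NS1 in S. cerevisiae, measured by optical density at 600 nm. Assay medium contained 2% galactose at pH 6.0; NS1-free yeast of the same strain were the positive control.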
RE007 growth inh: qHTS Assay for Inhibitors of the HIV-1 protein Vpr. Potency, µM (top dose mostly 92.2 µM), without a hit: at the top dose activity change, negative = less growth. S. pombe RE007 Vpr strain, BacTiter-Glo ATP luminescence, 24 h; control for the full effect not named in the record. AID 651644, 2012. 360,000 compounds, 0.21% hits; active = well fitted falling curve with a large enough effect; inconclusive = small, poorly fitted or top-dose-only effect; inactive = no such curve, though single readings can be large or run the other way;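 also: % is scaled to controls: 0 for no effect and ±100 for the full control effect; nearly all actives have a fitted effect of over 50% in size; the assay follows cell death caused by Vpr and the record does not say whether a fall means rescue or toxicity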
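Fission yeast strain RE007, carrying one chromosomally integrated HIV-1 vpr copy, was seeded at OD 0.01 in PMG+AL medium with 23 nL pinned compound. After 24 h at 30 °C and 99% humidity, viability was read by BacTiter-Glo luminescence.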
StopGo reporter: High Throughput Screening for Foot and Mouth Disease Virus Antivirals | 410,000 compounds, 1.2% hits | human cells with a luciferase reporter of 2A StopGo recoding; control for the full effect not named in the record | Potency, µM (top dose mostly 57.9 µM), for inactives: at the highest dose signal change, negative = less light; active = well fitted falling curve with a large enough effect; inconclusive = small, poorly fitted or top-dose-only effect; inactive = no such curve, though single readings can be large or run the other way; tested in HEK293T cells; also: % is scaled to controls: 0 for no effect and ±100 for the full control effect; nearly all actives have a fitted effect of over 45% in size; luciferase light after 4 h
Active calls of the source: *; ? = inconclusive; nt = not tested or not shown; & = joins results of further samples; [ ] = dose if it differs, or a comment. Unless noted, calls follow the shape of the dose curve; as a rule, active means well fitted rising curve with a large enough effect; inconclusive means small, poorly fitted or top-dose-only effect; inactive means no such curve, though single readings can be large or run the other way. Potency is read from the fitted curve at half-maximal effect. This is a random part of the collection. Share with any hit: about 4.8%.

SMILES | Marburg entry inh | Cruzain Triton | SARS PLpro yeast | LASV entry inh | Cruzain noTriton | NS1 function inh | RE007 growth inh | StopGo reporter
O=C1c2ccc(Oc3ccc([N+](=O)[O-])cc3)cc2C(=O)N1CCO | -3% | nt | -1% | -3% | nt | -4% | 15% | -12%
Cc1cccc(N2CCN(C(=O)Cn3c(=O)[nH]c4ccsc4c3=O)CC2C)c1 (stereo not given) | 13% | 1.6% | 2% | 0% | -3% | 2% | 26% | -29%
CC1CCc2sc3ncnc(N4CCOCC4)c3c2C1 (stereo not given) | 8% | -3.7% | -5% | -3% | 7% | -111% | 3% | ?
C#CCN(C#N)c1nc(NCC)nc(NC(C)C)n1 | -4% | -5.4% | 0% | 57%[14.3 µM] | -10% | 2% | 9% | -25%
Brc1ccccc1-c1nnc(CSc2nncn2-c2ccccc2)o1 | 16% | 1.6% | 7% | -10% | -8% | 3% | 6% | 1%
COc1ccc(OC)c(C2C(C(=O)Nc3ccc(C)cc3)=C(C)Nc3nnnn32)c1 (stereo not given) | nt | -2.1% | nt | 30%[46.1 µM] | 1% | nt | nt | -1%
CC(C)(C)NC(=O)COC(=O)c1ccc(S(=O)(=O)N2CCCC2)cc1 | 19%[46.1 µM] | nt | 2% | -20% | nt | -2% | -10% | -2%
Cc1nn(-c2nc3ccccc3[nH]2)c(=O)c2ccccc12 | ? | nt | -5% | nt | nt | nt | 6.3µM* | 0.79µM*
CC(C)OC(=O)CSc1nnc(-c2ccccc2)n1N | -1% | 3.8% | -4% | 3% | -4% | 3% | -2%[3.69 µM] | -4%
CC(C)c1nnc(NC(=O)Cn2nc(-c3ccc4c(c3)OCCO4)ccc2=O)s1 | 5% | -11% | -5% | 1% | 22% | -2% | 1% | 19%
CC(C)[C@H](NS(=O)(=O)c1ccc2c(c1)OCCO2)C(=O)OCC(=O)Nc1ccccc1Cl | 5% | -3.4% | 3% | -8% | 8% | -21% | -10% | -18%
C[C@@H](C(=O)Nc1cc(C(F)(F)F)ccc1N1CCOCC1)N1C(=O)C2CC=CCC2C1=O (stereo not given in full) | -5%[46.1 µM] | nt | nt | 1%[46.1 µM] | nt | nt | 5% | -1%
CN1CCN(S(=O)(=O)c2cccc(C(=O)N(C)CC(=O)Nc3ccc(F)c(F)c3F)c2)CC1 | 3% | nt | 4% | 2%[46.1 µM] | nt | nt | -5% | -4%
CCCSCCCNC(=O)c1ccc2nc(Cc3ccccc3)oc2c1 | nt | -5.3% | nt | 19%[46.1 µM] | -5% | nt | nt | -9%
O=C(O)CCN1CCc2ccccc21 | ? | 3.3% | -1% | 5% | -13% | 4% | 0% | 8%
COc1ccc(CNC(=O)CCS(=O)(=O)c2cc3c4c(c2)CCN4C(=O)CC3)cc1OC | nt | -0.8% | nt | 19%[46.1 µM] | -6% | nt | nt | -1%
O=C(Nc1nnc(S(=O)(=O)N2CCCCCC2)s1)c1ccccc1Cl | nt | -10% | -2% | -13%[46.1 µM] | 21% | -20% | 2% | -3%&11%
CCCCc1ncc(CN2CCC(n3nccc3NC(=O)c3ccccc3OC)CC2)[nH]1 | nt | nt | 1% | nt | nt | -7% | -8% | 4%
Cc1ccc(C)c(NC(=O)c2ccc(S(=O)(=O)C(F)F)cc2)c1 | -34% | -3.0% | -26% | ? | 6% | 2% | -7% | -18%
Cc1ccc(NC(=O)Nc2nnc(N(C)C3CCCCC3)s2)c(Cl)c1 | 1%[46.1 µM] | -7.1% | nt | -5%[46.1 µM] | ? | nt | nt | 4%
Cc1cc(C)c(N(C(=O)c2csnn2)C(C(=O)NC(C)(C)C)c2ccncc2)c(C)c1 (stereo not given) | -2% | nt | -1% | -3% | nt | 0% | -11% | -13%
COC(=O)c1ccccc1NC(=O)Cn1nnc(-c2ccc3c(c2)OCO3)n1 | 6% | nt | 2% | 1% | nt | 24% | 0% | -6%
Cc1ccc(-c2nnn(CC(=O)NCCc3ccc4c(c3)OCO4)n2)cc1 | ? | nt | 1% | -18%[46.1 µM] | nt | nt | ? | -2%
COC(=O)C1=C(C)N(c2cccc3ccccc23)C(=O)C1 | -14% | 1.9% | -9% | 2% | -12% | 5% | -6% | ?
COc1ccc(NC(=O)C(C)NS(=O)(=O)c2ccccc2)cc1Cl (stereo not given) | -13% | 9.6% | -3% | -2% | -9% | -2% | 4% | -15%
O=S(=O)(Nc1ccc2c(c1)nc1n2CCOC1)c1ccc(Cl)cc1 | 6% | 1.1% | -14% | -13% | 0% | -8% | -8% | -17%
Cc1nnc(SCC(=O)NCc2ccc3c(c2)OCO3)n1C | -8%[46.1 µM] | nt | 1% | 9%[46.1 µM] | nt | nt | -13% | -13%
CN(C)c1ccc(CNC(=O)Cn2ccc3cc(S(=O)(=O)N4CCCCCC4)ccc32)cc1 | nt | -4.9% | nt | 5%[46.1 µM] | -12% | nt | nt | 0%
O=C(/C=C/c1ccccc1)OCC(=O)N1CCN(c2ccccc2)CC1 | 6% | nt | -4% | 5% | nt | nt | -3% | -11%
N#CCCN(C(=O)COC(=O)Cc1ccc(Br)cc1)c1ccccc1 | 20%[46.1 µM] | nt | 2% | 18%[46.1 µM] | nt | -1% | 17% | 0%
COCCOC(=O)c1[nH]c2c(c1C)C(=O)CC(c1ccccc1)C2 (stereo not given) | -29% | -0.5% | 9% | ? | 14% | -1% | 12% | ?
O=C(NCCN1CCN(C(=O)c2ccc([N+](=O)[O-])cc2)CC1)C(=O)Nc1ccc(F)cc1 | 1% | nt | 2% | 8% | nt | 5% | -13% | -5%
CCOc1ccc(N(CC)S(=O)(=O)N2CCCC(C(=O)NCCc3ccc(OC)cc3)C2)cc1 (stereo not given) | -12%[46.1 µM] | -4.4% | nt | nt | ? | nt | nt | -19%
CCOc1ccc(NC(=O)C2CCC(CNc3c(N4CCC(C)CC4)c(=O)c3=O)CC2)cc1 (stereo not given) | 7%[46.1 µM] | nt | 1% | -1% | nt | 3% | 6% | -18%
O=c1c2ccccc2nc(C[n+]2ccccc2)n1-c1cccc(C(F)(F)F)c1 | -5%[46.1 µM] | nt | 1% | 2% | nt | 4% | -9% | -4%
CCNC(=S)Nc1ccc2ncoc2c1 | 0%[46.1 µM] | nt | -1% | 6%[46.1 µM] | nt | 0% | -29% | 25%
CC(=O)c1c(C)n(-c2ccccc2)c2ccc(OCC(N)=O)cc12 | -3%[46.1 µM] | nt | -1% | nt | nt | 1% | 5% | -16%
Cc1cccc(NC(=O)CN2C(=O)C(c3ccc(F)cc3)=NC23CCCCCC3)c1 | ? | -5.5% | nt | ? | 2% | nt | nt | 4%
O=C(CC12CC3CC(CC(C3)C1)C2)Nc1cccc2ncccc12 | 13% | -6.9% | 17% | -10% | 11% | -5% | 0% | 0%
COc1cc2oc(=O)c(CC(=O)NCCc3ccccc3)c(C)c2cc1Cl | 5%[46.1 µM] | -0.8% | nt | 14%[46.1 µM] | -3% | nt | nt | -9%
CCOC(=O)CSc1nnc(Cc2ccccc2)n1-c1cccc(Cl)c1 | 17% | 4.7% | 1% | -1% | 15% | 11% | 13% | 4%
CCN(C(=O)C1CCCN1S(=O)(=O)c1ccc2c(c1)n(C)c(=O)c(=O)n2C)c1ccccc1 (stereo not given) | nt | nt | 0% | nt | nt | 6% | -4% | ?
Fc1ccccc1-c1nc(NC2CCCC2)c2ccccc2n1 | -25%[46.1 µM] | nt | -8% | ? | nt | -59% | -4% | -1%
O=C(COc1ccc2ccccc2c1)Nc1nnc(-c2ccco2)s1 | 3%[46.1 µM] | nt | 4% | -15% | nt | 5% | ? | 20%
Cc1ccc(S(=O)(=O)NCc2ccccn2)c(C)c1 | nt | nt | 0% | nt | nt | 4% | -4% | 30%[activator]
O=C1CCC(=O)N1CNc1ccc(Oc2ccccc2)cc1 | 12% | -2.3% | nt | -9% | -2% | -16% | 5% | 6%
CCOC(=O)Nc1ccc(Oc2ccccc2)cc1 | 26% | -7.5% | -12% | 4% | -1% | -30% | 12% | 16%
CCC1CCc2nc3sc(C(=O)Nc4cccc(C(F)(F)F)c4)c(N)c3cc2C1 (stereo not given) | 11%[46.1 µM] | -2.7% | nt | ? | -34% | nt | nt | -24%
CC(=O)c1ccc(OCc2cc([N+](=O)[O-])cc3c2OCOC3)cc1 | 11%[46.1 µM] | nt | -2% | -5% | nt | 13% | -17% | -18%
Brc1ccc(CSc2ccc(-c3ccco3)nn2)cc1 | ? | nt | 0% | ? | nt | nt | -3% | 41%[activator]

Next section.
SMILES | Marburg entry inh | Cruzain Triton | SARS PLpro yeast | LASV entry inh | Cruzain noTriton | NS1 function inh | RE007 growth inh | StopGo reporter
CCNC(=O)c1c(NC(=O)COc2ccc(F)cc2)sc2c1CCCC2 | 10%[46.1 µM] | -1.6% | nt | 26%[46.1 µM] | -3% | nt | nt | 3%
COc1cc(OC)cc(-c2nc3nc(C)c(CCC(=O)NCC(OC)OC)c(C)n3n2)c1 | 19%[46.1 µM] | nt | -1% | -4%[46.1 µM] | nt | nt | -19% | -22%
CCN(CC)CCCNc1nc2ccccc2[nH]1 | nt | -9.4% | 0% | nt | ? | -8% | 26% | -4%
CC(C)(C)NC(=O)CSc1ncnc2c1cnn2-c1ccccc1 | nt | nt | 3% | nt | nt | 2% | -18% | ?
COC(=O)CSc1nnc(CNC(=O)c2ccco2)n1-c1ccc(F)cc1 | -6% | 2.3% | -2% | 9% | -11% | -3% | 13% | -5%
Cc1ccccc1-n1nnnc1SC(C)C(=O)Nc1ccc(N2CCN(C)CC2)cc1 (stereo not given) | ? | nt | 4% | ? | nt | -2% | -5% | 22%
O=C(CSc1nnnn1-c1ccc2c(c1)OCCO2)c1cccc2c1OCCO2 | 8% | 0.2% | -10% | 15% | 25µM* | -3% | 5% | 26%
CC(=O)c1c(C)[nH]c(C(=O)OCc2nnc(-c3ccccc3)o2)c1C | -47%[46.1 µM] | 3.9% | -2% | 13% | ? | -19% | 41% | ?
COc1ccc(NC(=O)Nc2ccc3c(c2)OCO3)c(C)c1 | nt | nt | 0% | nt | nt | 2% | 3% | 41%[activator]
